# Screening results as filed in PubChem BioAssay.
# Ba CapD inh = blocks the Bacillus anthracis CapD enzyme | purified CapD enzyme, fluorescence intensity read-out; hits give low values; some hits fall short of the stated cut | z-score (concentration not given with the values) | actives 0.23% (n = 140,000);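 active = z-score under -4 in either of two replicates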;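 note: stock transfer was 100 nL into about 40 µL; score is relative to mean and spread of the plate; one replicate is shown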
# AID504770 = growth inhibitors of E. coli YBA685 in a screen for V. cholerae RctB (chromosome II replication) inhibitors. E. coli YBA685 rctB-dependent plasmid, OD600 growth, 3 h; hits give low values. z-score (concentration not given with the values). actives 0.27% (n = 130,000). AID 504770;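 active = z-score under -2 on both plates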;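 note: wells of about 30 µL received 100 nL stock; score is relative to mean and SD of the test wells; the first replicate is given; strong numbers were not always called active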
# Starred values were filed as active, the others as inactive; . = no result given. This is a subset; the hit share may differ from the screen's.
# Fields – Ba CapD inh	AID504770
> C=CCNc1nnc(SCC(=O)N2N=CCC2c2ccccc2)s1 (configuration not stated)
→ .	-0.85
> Cc1cccc(N2CC(O)(c3ccc([N+](=O)[O-])cc3)[N+]3=C2SCCC3)c1C (configuration not stated)
→ -0.03	.
> Nc1ccc(Sc2cc(Cl)ccc2Cl)nc1
→ -0.24	.
> COc1cc(C2NC(=O)c3c(sc4c3CCCC4)N2)cc(Br)c1OC (configuration not stated)
→ 0.62	.
> COc1ccccc1NC(=O)Cn1cccc1
→ 0.5	0.55
> CCOc1cc(S(=O)(=O)NCc2ccc(OC)cc2)c(OCC)cc1-n1cnnn1
→ .	1.6
> COC(Cn1c(SCc2ccccc2)nnc1-c1ccccc1)OC
→ -0.82	-0.15
> CCOc1ccc(CN2C(=O)c3ccccc3Sc3ccc(C(=O)NC(=O)C4CCNCC4)cc32)cc1
→ -0.3	-0.15
> Cc1c(C(=O)NCc2cccnc2)oc2ccc(S(=O)(=O)N3CCCCC3)cc12
→ 0.24	-0.3
> COC(=O)c1cn(C)c2ccc(S(=O)(=O)N3CCOCC3)cc2c1=O
→ -1.8	-1.8
> CCc1cccc(NC(=S)N(Cc2c[nH]c3ccccc23)C2CCCC2)c1
→ -0.28	-0.5
> COc1ccc(-n2c(=S)[nH]c3cc(C(=O)NCc4cccc(Cl)c4)ccc3c2=O)cc1OC
→ -1.4	.
> COc1ccc(/C=C2\SC(=O)N(c3c(C)n(C)n(-c4ccccc4)c3=O)C2=O)cc1OC
→ .	0.1
> CCC(Sc1nc2ncccc2c(=O)n1Cc1ccccc1)C(=O)Nc1ccc(OC)cc1 (configuration not stated)
→ -0.005	0.25
> CC(C)NC(=O)C1CCCN(c2nc3cccnc3s2)C1 (configuration not stated)
→ 1.1	-0.55
> CCc1ccc2c(C(F)(F)F)cc(=O)oc2c1
→ 0.77	0
> CC(C)(C)c1[nH]nc2c1C1(C(=O)Nc3ccc(Br)cc31)C(C#N)=C(N)O2 (configuration not stated)
→ 0.73	.
> N=C(N)SCc1ccc(Cl)cc1Cl
→ -0.005	-1.6
> O=C(N/C=C/n1cnc2cc(C(F)(F)F)ccc21)c1ccccc1
→ -0.42	-0.25
> N#Cc1cc2c(nc1SCC(=O)Nc1ccc(Cl)cc1)C1CCN2CC1
→ 0.13	-0.75
> O=C(O)CC1SC(c2cccc(Cl)c2)=NC1=O (configuration not stated)
→ -2.5	0.85
> COc1cc(/C=N/NC(=O)Cn2ncn(-c3ccccc3)c2=O)ccc1OC(=O)CC1SC(=O)NC1=O (configuration not stated)
→ .	0.15
> O=c1[nH]cnc2sc3c(c12)CN(Cc1ccccc1)CC3
→ 1.8	-0.75
> O=C(C#Cc1ccccc1)Nc1ccc(OC(F)(F)F)cc1
→ 0.31	1.7
> COc1ccccc1C(=O)NC(C)(C)CO
→ 0.26	-0.55
> CCOc1ccc(C(=O)Nc2ccc(S(=O)(=O)N(C)C)cc2)cc1OCC
→ .	0.05
> N#CC1=C(N)S[C@@H](C(=O)c2cccs2)[C@@H]1c1cccs1
→ 6	.
> COC(=O)COc1coc(CN2CCN(c3cccc(Cl)c3)CC2)cc1=O
→ .	-0.05
> CN(Cc1ccccc1)Cn1[nH]c(-c2cccs2)nc1=S
→ .	0.15
> N#CC(C(=O)c1nc(N2CCN(Cc3ccccc3)CC2)ncc1Cl)c1nc2ccccc2c(=O)[nH]1 (configuration not stated)
→ .	0.4
> COc1cc(NC(=O)CNc2cc(Cl)cc(Cl)c2)cc(OC)c1
→ .	1.6
> CN(C)/C=C(\C#N)c1nc(-c2ccc(Cl)cc2)cs1
→ -2	.
> O=C(Nc1ccc2nc(CN3CCCCC3)[nH]c2c1)c1ccccc1F
→ -0.12	-1.1
> CCCn1[nH]cc(SC)c(=O)c1=O
→ -0.33	0.45
> CN(C)c1cc(-c2ccc(Br)cc2)oc(=O)c1Cl
→ -0.04	.
> Cc1nc(C(C#N)c2ccccc2)cs1 (configuration not stated)
→ 0.085	-0.25
> CN(Cc1ccccc1)C(=O)c1noc2c1CCCC2
→ -0.055	-1.6
> COc1ccc(OC)c(-c2nc(Nc3ccccc3F)sc2CC(=O)O)c1
→ 0.78	0.4
> O=C(O)/C=C\c1cccn1-c1nccs1
→ -0.91	-0.25
> O=C(O)CSc1cccc(C(F)(F)F)c1
→ 0.005	-0.85
> CC(=O)Nc1ccc2c(c1)N(C(C)=O)c1ccccc1CC2
→ 0.075	-0.1
> Cn1c(=O)n(C)c2cc(CNC3C4CC5CC(C4)CC3C5)ccc21 (configuration not stated)
→ -2.2	-0.05
> Nc1nc(N)c2nc(CNc3ccc(C(=O)NC(CCC(=O)O)C(=O)O)cc3)cnc2n1 (configuration not stated)
→ .	0.15
> O=C(C1CC1)N1CCN(C23CC4CC(CC(C4)C2)C3)CC1
→ -0.51	0.5
> CC1CCN(c2cc(N3CCN(C(=O)c4ccccc4F)CC3)c([N+](=O)[O-])cc2F)CC1
→ -0.17	.
> CC(COC(=O)N1CCN(c2cccc(Cl)c2)CC1)c1ccccc1 (configuration not stated)
→ -0.24	.
> O/N=C(\Cc1cscn1)c1ccc(O)cc1O
→ -0.49	-0.9
> COc1cnc(-c2ccccn2)nc1Sc1cccc(C(F)(F)F)c1
→ -0.015	.
> CCn1c(=O)c2cc(C(=O)NCc3cccs3)sc2c2ccccc21
→ -3.6	0.5
> COc1ccc(N(C(C)C(=O)N(C)C)S(C)(=O)=O)cc1 (configuration not stated)
→ 0.66	-0.35

# (further entries)
# Fields – Ba CapD inh	AID504770
> c1cncc(-c2[nH]ncc2-c2ccncn2)c1
→ -0.095	.
> CCN1CCN(C(c2cccs2)C(C)NC(=O)c2ccc(F)cc2)CC1 (configuration not stated)
→ 0.65	-0.45
> COc1cc(C2C(C(=O)c3cc4cccc(OC)c4o3)=C(O)C(=O)N2c2nnc(C)s2)cc(Br)c1O (configuration not stated)
→ -1.5	-0.2
> Cc1ccc(Oc2ccc(C#N)cc2)c(C)c1
→ -0.26	0.05
> O=C1CSC(c2ccc(Cl)cc2)N1CCN1CCCCC1 (configuration not stated)
→ 0.42	-0.1
> Cc1cc(C)c(NC(=O)CN(C)CC(N)=S)c(C)c1
→ .	-1.1
> CN1CCN(c2nc3c(c(=O)[nH]c(=O)n3C)n2CC(O)COc2ccc(Br)cc2)CC1 (configuration not stated)
→ 0.05	.
> CN1C(=O)CSc2ccccc21
→ 0.61	-1.4
> COc1ccc(-n2ncc3c(N4CCC(Cc5ccccc5)CC4)ncnc32)cc1
→ -0.35	.
> O=C(Nc1ccc(-c2nc3ccccc3o2)cc1)c1ccc(Cl)c(Cl)c1
→ 19	.
> Cc1ccc(C)c(NC(=O)Cc2c(C)nc3c(-c4ccccc4)c(C)nn3c2C)c1
→ 3.3	0.1
> COc1ccccc1OCCn1c(NC(=O)c2cccs2)nc2ccccc21
→ 0.29	-1.1
> CC(=O)NCCc1cc2cc(C)c(C)cc2[nH]c1=O
→ .	-0.25
> O=C(CSc1nnc2ccccn12)Nc1ccc(F)cc1
→ 1.6	-0.9
> O=C1C(=Nc2ccccc2)c2ccccc2N1Cc1ccccc1
→ -1.2	-0.7
> Cc1cc(C)c(N=C=S)c(Cl)c1
→ .	0.1
> O=C(CSc1nnc2ccccn12)Nc1ccccc1C(=O)O
→ .	-0.25
> Cc1ccc(C)c(C(=O)CN2C3=NCCCN3c3ccccc32)c1
→ -0.14	.
> O=C(NCCN1CCOCC1)c1cccs1
→ -1.2	1.9
> CNC(=S)NCCc1c(C)[nH]c2ccccc12
→ 39	-0.85
> Cc1n[nH]c(C)c1N1C(=O)c2cccc3c(N)ccc(c23)C1=O
→ -0.36	0
> CCCC(=O)c1ccc2[s+]c3ccccc3[n+](CCCN(C)C)c2c1
→ -1.1	-0.6
> CCc1ccccc1NC(=O)Cn1c(=O)oc2cc(S(=O)(=O)N3CCCCC3C)ccc21 (configuration not stated)
→ -0.29	-0.95
> O=C(CS(=O)(=O)c1ccccc1)N1CCN(Cc2ccc3c(c2)OCO3)CC1
→ .	0.3
> NC(=O)c1ccccc1NC(=O)c1cc(=O)c2ccccc2o1
→ -0.61	-1
> O=S(=O)(c1cccc(C(F)(F)F)c1)c1snnc1-c1ccccc1
→ -0.16	.
> O=C(c1ccco1)N1CCN(C(=O)C(NS(=O)(=O)c2cccc3nsnc23)c2ccccc2)CC1 (configuration not stated)
→ -0.92	-0.95
> O=C(Cn1cnc2ccccc2c1=O)NCC(=O)N1CCN(c2ccccc2)CC1
→ -0.14	.
> N#Cc1ccccc1CSc1nnc2c(n1)[nH]c1ccccc12
→ 0.04	-0.2
> COc1ccc(Br)cc1C1=N/C(=C\c2c(F)cccc2Cl)C(=O)O1
→ -0.67	.
> O=C1CCCC(O)=C1N=Nc1ccc(C(=O)O)cc1
→ .	1.5
> Cc1c(SCC(C)C)cc(N2C(=O)c3ccccc3C2=O)cc1S(=O)(=O)c1ccccc1
→ -0.08	-0.25
> Cc1nc(N2CCN(c3ccccc3F)CC2)c2c3c(sc2n1)CCC3
→ -0.53	.
> CCOC(=O)N1CCN(C(=O)c2sc3nc(C)nc(N4CCN(c5ccccn5)CC4)c3c2C)CC1
→ 0.05	.
> Cn1c(SCC(=O)Nc2ccc(C(F)(F)F)cc2)nnc1-c1ccc2nonc2c1
→ 0.56	.
> C=CCn1c(SCC(=O)N2CCOCC2)nc2sc(C)c(C)c2c1=O
→ -0.32	.
> O=C(O)CNC(=S)N(Cc1cccs1)C1CCCCC1
→ 0.68	0.1
> CN(CC1COc2ccccc2O1)c1cc(=O)n2cc(Cl)ccc2n1 (configuration not stated)
→ .	-0.05
> N#CC(C(=O)CN1CCCCC1)c1ccccc1 (configuration not stated)
→ -0.95	1.8
> O=C(O)/C=C/C(=O)Nc1ccc(C2CCCCC2)cc1
→ 0.86	0.2
> CSc1nnc(CNC(=O)N(c2ccccc2)c2ccccc2)n1C
→ .	-0.4
> CC(=O)NCCc1nc2ccc(NC(=O)Cn3nc(C)c4ccccc4c3=O)cc2n1C
→ -0.13	0.05
> COc1ccc(CCNC(=O)CSc2cn(Cc3ccc(F)cc3)c3ccccc23)cc1OC
→ -0.39	-0.55
> Cc1nc(SCC(=O)N2CCCC2)c2c(=O)n(C)c(=O)n(C)c2n1
→ 0.51	0.05
> Cc1cccc(NC(=O)C(C)(C)C)c1
→ .	1.9
> N#CCS(=O)(=O)c1ccc(OC(F)(F)F)cc1
→ -0.33	-0.2
> Cc1nc(Nc2ccccc2)sc1C(=O)c1ccccc1
→ 0.42	0.6
> O=S(=O)(c1cccs1)n1ccnc1
→ 0.56	-0.7
> O=C(NC1CCCC1)c1ccc2c(=O)n3nc(Nc4ccccc4)sc3nc2c1
→ -1.2	3.3
> S=C(Nc1ccc(Cl)cc1)Nc1ccc(-c2csnn2)cc1
→ -0.34	1.5

# (next part)
# Fields – Ba CapD inh	AID504770
> COc1cc(NS(=O)(=O)c2cccc(Cl)c2Cl)cc(OC)c1
→ .	0.25
> O=C(CSC1=NCCS1)Nc1nnc(-c2ccccc2Cl)s1
→ 0.12	0.2
> Cc1nc2c(c(C)nn2C(C)(C)C)c(C)c1CCC(=O)N(C)Cc1ccccc1
→ 0.55	0.6
> CC1CN(C(=O)c2ccccc2Cl)CCN1C(=O)c1ccccc1Cl (configuration not stated)
→ 0.6	-0.35
> CS(=O)(=O)c1cnn(-c2ccccc2)c1-c1ccc(Cl)c(Cl)c1
→ -0.27	.
> O=c1[nH]c2nonc2nc1Nc1ccccc1F
→ -2.6	-0.75
> CCN1C(=O)C[C@@H](C(=O)NC)[C@@H]1c1ccc(OC)cc1OC
→ .	-0.4
> CCOP(=O)(OCC)c1nc(-c2ccc(C)cc2)oc1N1CCOCC1
→ 72	.
> COCCN1Cc2cccc(C(=O)Nc3ccccc3C)c2C1=O
→ -0.18	0.7
> O=C1CCCN1CC(O)CS(=O)(=O)c1ccc(Cl)cc1 (configuration not stated)
→ 0.8	0.15

# Of the compounds above, these have a furan ring, fused or not.
# Fields – Ba CapD inh	AID504770
> Cc1c(C(=O)NCc2cccnc2)oc2ccc(S(=O)(=O)N3CCCCC3)cc12
→ 0.24	-0.3
> COc1cc(C2C(C(=O)c3cc4cccc(OC)c4o3)=C(O)C(=O)N2c2nnc(C)s2)cc(Br)c1O (configuration not stated)
→ -1.5	-0.2
> O=C(c1ccco1)N1CCN(C(=O)C(NS(=O)(=O)c2cccc3nsnc23)c2ccccc2)CC1 (configuration not stated)
→ -0.92	-0.95

# (cont.)
# Fields – Ba CapD inh	AID504770
> COc1ccc(C(=O)Nc2cc(C(F)(F)F)ccc2-n2cncn2)cc1
→ 0.35	0.2
> Nc1nc2ccc(Cl)cc2c(-c2ccccc2)c1CN1CCOCC1
→ 19	-0.25
> CCOC(=O)C1CCN(C(=O)CSc2nc3ccccc3o2)CC1
→ .	1.1
> COc1cccc(C2C3CC(C(C)(C)C)CC=C3C(C#N)=C(N)C2(C#N)C#N)c1O (configuration not stated)
→ -0.18	.
> CCC(=O)Nc1cccc(C(=O)N2CCc3ccccc32)c1
→ .	-1.2
> CCOC(=O)c1c(C)c(C(=O)NC2CCCCC2)c(C)n1C
→ -0.8	-0.75
> CCCNC(=O)Cn1nc(C)c2sc3ccccc3c2c1=O
→ -5.8*	0.05
> COc1cccc(N=Cc2ccc(O)c3c2OC(N)=C(C#N)[C@@H]3c2ccccc2[N+](=O)[O-])c1
→ 5.4	.
> CC(=O)OCC(=O)[C@@]1(O)CCC2C3CCC4=CC(=O)C=CC4(C)C3[C@@H](O)C[C@@]21C (some centres not stated)
→ -0.17	0.15
> CCc1c(C#N)c(SCC(=O)c2cc3ccccc3oc2=O)nc2c1CCC2
→ 0.33	.
> O=C1C(=Cc2ccc(C(F)(F)F)cc2)C(=O)c2ccccc21
→ 0.69	-1.6
> Oc1cnn(-c2ccccc2)c1
→ -0.05	-0.7
> OC(COc1ccc2ccccc2c1)Cn1ccnc1 (configuration not stated)
→ .	-0.35
> CCc1c(C)c(C#N)c2nc3ccccc3n2c1-n1ccnc1
→ -0.35	-0.3
> CCOc1ccc(C(=O)N(C)Cc2ccc(OC)cc2OC)cc1
→ .	-1.1
